Screening results deposited in PubChem by National Center for Advancing Translational Sciences (NCATS).
VDR inhibitor – vitamin D3 receptor (human) inhibition. P11473. VDR-SRC2-3 peptide fluorescence polarization, 2 h. Potency, µM, for inactives: max response, negative = inhibition, most hits filed as inhibitors. 400,000 compounds, 0.93% hits; active = well fitted inhibition curve with a large enough effect; inconclusive = small, poorly fitted or top-dose-only effect, or another doubt; inactive = no such curve, though single readings can be large or run the other way; also: series mostly up to about 120 µM
Target sequence (P11473 whole entry, looked up): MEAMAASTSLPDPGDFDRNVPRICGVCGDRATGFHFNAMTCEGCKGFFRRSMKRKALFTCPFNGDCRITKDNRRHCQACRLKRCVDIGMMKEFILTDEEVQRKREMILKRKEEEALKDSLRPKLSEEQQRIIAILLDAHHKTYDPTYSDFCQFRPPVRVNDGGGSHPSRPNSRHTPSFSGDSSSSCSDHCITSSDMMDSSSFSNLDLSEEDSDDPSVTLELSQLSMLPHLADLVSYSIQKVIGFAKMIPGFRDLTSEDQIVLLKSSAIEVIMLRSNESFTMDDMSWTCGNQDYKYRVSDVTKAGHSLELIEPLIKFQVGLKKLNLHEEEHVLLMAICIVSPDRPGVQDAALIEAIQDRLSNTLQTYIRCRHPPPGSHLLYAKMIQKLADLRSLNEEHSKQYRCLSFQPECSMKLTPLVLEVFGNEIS
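Reagent solutions, kept cold and dark, are dispensed first; compounds are then pinned in at 23 nl, plates briefly spun, and incubated 2 h at ambient temperature. Inhibition of VDR–SRC2-3 peptide binding is read by fluorescence polarization.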
Active calls of the source: *; ? = inconclusive; [ ] = another dose, or the depositor's remark. % is scaled to controls: 0 for no effect and ±100 for the full control effect; potency is read from the fitted curve at half-maximal effect. Only part of the results is shown; the hit share may differ from the screen's.

mol | VDR inhibitor
CCc1ccc(CN(C)C(=O)C2CCC(=O)N(CC3CCCCC3)C2)cc1 (stereo not drawn) | -13%
CC(C)(C)c1ccc(S(=O)(=O)Nc2ccc(Cc3ccncc3)cc2)cc1 | -14%
Fc1ccc(-c2cn3ccccc3n2)cc1 | 8%
O=C(OCCOc1ccccc1)c1cc(S(=O)(=O)N2CCOCC2)ccc1Cl | -23%
CCOC(=O)CN(C)C(=O)CCc1nnc(-c2ccsc2)o1 | -5%
O=C(Nc1ccccc1F)c1oc2ccccc2c1NC(=O)c1c(F)cccc1F | 52%[activator]
CCOc1ccc(CCNC(c2nnc(-c3ccccc3)o2)c2ccccc2Cl)cc1OCC (stereo not drawn) | -3%
Cc1cc(/C=C\c2ccccc2)nc2ccccc12 | -15%
C=CCn1c(C2CC(=O)N(c3ccc(C)cc3)C2)nc2ccccc21 (stereo not drawn) | -7%
O=C(NCCCN1CCCCC1)C1CCC(=O)N1CCc1ccccc1 (stereo not drawn) | 20%
CC(N=Cc1nc(-c2ccccc2)oc1O)c1ccccc1 (stereo not drawn) | -2%
CC1/C(=N/O)C(CN(C)C)C2CC1C2(C)C (stereo not drawn) | -4%
COc1ccc(Oc2ncc3nc(-c4ccc(F)cc4)c(=O)n(C[C@H]4CCCO4)c3n2)cc1 | 1%
O=C(CSc1nnc(-c2ccc(F)cc2)o1)N1CCCCC1 | 0%
CC(C)(C)OC(=O)NC(Cc1ccccc1)C(=O)N1CCC(C(=O)NCC(=O)Nc2ccc(F)cc2)CC1 (stereo not drawn) | 10%
CC(O)[C@@]1(O)CC[C@H]2[C@@H]3CC[C@H]4C[C@@H](O)CC[C@]4(C)C3=CC[C@@]21C (stereo partly drawn) | 2%
COCC1CCCN(C(=O)c2ccc3oc(Cc4ccc(Cl)cc4)nc3c2)C1 (stereo not drawn) | -8%
CC(=O)c1cccc(NC(=O)CSc2nc(=O)n(CCN3CCOCC3)c3c2CCC3)c1 | -5%
N=c1c2c(-c3ccccc3)c(-c3ccccc3)n(Cc3ccccc3)c2ncn1CCCO | -8%
COc1ccccc1Nc1nc(-c2ccccc2Cl)c2cc(Br)ccc2n1 | -14%
COC(=O)C1=NN(C(=O)c2ccccc2)C(C)(O)C1 (stereo not drawn) | -9%
COC(=O)c1ccccc1NC(=O)C1CC(=O)N(c2ccccc2)C1 (stereo not drawn) | 7%
CC(C)CCN1CCN(Cc2ccc(C#CCCO)cc2)CC1CCO (stereo not drawn) | -8%
CC1=C(C#N)C2(O)C(=O)c3ccccc3C2(O)N1 (stereo not drawn) | 13%
O=C1c2ccccc2-c2nc3ccccc3cc21 | -2%
C=CCc1ccccc1OCCn1ccnc1 | 7%
N=c1n(CCN2CCOCC2)c2ccccc2n1CC(=O)c1cccc([N+](=O)[O-])c1 | -7%
CCOC(=O)c1c(C)[nH]c(C)c1C(=O)CSc1nc2ccccc2n1CCOC | -7%
Cc1cc(=O)oc2c(C)c(OC(C)C(=O)NCCCN3CCOCC3)ccc12 (stereo not drawn) | 13%
CCCNC(=O)C1(CC2CC(c3ccccc3)=NO2)CCN(C(=O)c2ccccc2)CC1 (stereo not drawn) | -9%
Cn1c(=O)c2c(nc(NCc3ccc4c(c3)OCO4)n2C)n(C)c1=O | 2%
O=C(CN1CCCc2ccccc21)N1CCc2ccccc21 | 8%

Grouped by structure, those above with a Cl atom
mol | VDR inhibitor
O=C(OCCOc1ccccc1)c1cc(S(=O)(=O)N2CCOCC2)ccc1Cl | -23%
CCOc1ccc(CCNC(c2nnc(-c3ccccc3)o2)c2ccccc2Cl)cc1OCC (stereo not drawn) | -3%
COCC1CCCN(C(=O)c2ccc3oc(Cc4ccc(Cl)cc4)nc3c2)C1 (stereo not drawn) | -8%
COc1ccccc1Nc1nc(-c2ccccc2Cl)c2cc(Br)ccc2n1 | -14%

Remaining list, next part.
mol | VDR inhibitor
CCOC(=O)Cc1cnc(NC(=O)CSc2nc(C)cc(C)n2)s1 | -5%
Cc1nc(CCNC(=O)CC2C(=O)NCCN2Cc2ccccc2F)sc1C (stereo not drawn) | 9%
Cc1cc(NC(=O)CC#N)n(-c2ccccc2)n1 | -13%
CC(Oc1ccccc1Cl)C(=O)/C=C/N(C)C (stereo not drawn) | -5%
CCCCNC(=O)c1nc2ncc(Br)cn2n1 | 0%
Cc1cn(CCC(=O)Nc2ccccc2N2CCOCC2)c2ccccc12 | -19%
Cc1ccc(NC(=O)C(=O)NCc2ccc(/C=C(/C#N)C(=O)NCc3cccnc3)o2)cc1 | -7%
O=C(/C=C/c1ccc(Cl)cc1Cl)c1nc2ccccc2[nH]1 | -13%

Reprinted from the part before: five compounds; new compounds follow.
mol | VDR inhibitor
CC(Oc1ccccc1Cl)C(=O)/C=C/N(C)C (stereo not drawn) | -5%
CCCCNC(=O)c1nc2ncc(Br)cn2n1 | 0%
Cc1cn(CCC(=O)Nc2ccccc2N2CCOCC2)c2ccccc12 | -19%
Cc1ccc(NC(=O)C(=O)NCc2ccc(/C=C(/C#N)C(=O)NCc3cccnc3)o2)cc1 | -7%
O=C(/C=C/c1ccc(Cl)cc1Cl)c1nc2ccccc2[nH]1 | -13%
CCOc1ccc(N(CC(=O)NC2CC2)S(=O)(=O)c2ccc(C)cc2)cc1 | ?
Cc1ccc(S(=O)(=O)N2CCCOC2CNC(=O)C(=O)NCCc2c[nH]c3ccccc23)cc1 (stereo not drawn) | -12%
CC(C)c1ccc(/C=C/C(=O)NCCCc2ccccc2)cc1 | 9%
CCN(C(=O)CSc1nnc(-c2cc(OC)c(OC)c(OC)c2)o1)c1ccccc1 | 5%
Cc1cccc(-n2c(CNC(=O)c3ccc(S(=O)(=O)N4CCCCC4)cc3)n[nH]c2=S)c1 | 10%
Cc1ccc2c(O)c(C)c(=O)[nH]c2n1 | -5%
CN1C(=O)c2ccccc2Sc2ccc(NC(=O)Cc3ccc(Cl)cc3)cc21 | 12%
CC(C)c1ccc(N(CC(=O)O)S(=O)(=O)c2cccnc2)cc1 | -20%
CC(=O)Nc1ccc(C(=O)OCc2ccccc2Br)cc1 | 3%
O=C1CC(Cc2ccc(Cl)cc2)C(=O)N1c1cc(Cl)ccn1 (stereo not drawn) | 7%
O=C1CCC(=O)N1CCc1c[nH]c2ccccc12 | -1%
COc1ccc(CCNC(=O)CSc2nnc3ccc(-c4ccccn4)nn23)cc1OC | 17%
N#CC1(NC(=O)COC(=O)C23CC4CC(CC(O)(C4)C2)C3)CCCCC1 | -1%
CCOC(=O)c1cccc(NC(=O)C2CCCN(c3nnc(C)c4c(C)n(-c5ccccc5)nc34)C2)c1 (stereo not drawn) | 15%
Fc1ccc(-c2nc3c(-c4ccc(Cl)cc4)cnn3cc2CCN2CCOCC2)cc1 | 8%
COc1cccc(NC(=O)C(OC(=O)c2ccccc2NS(=O)(=O)c2cccs2)c2ccccc2)c1 (stereo not drawn) | 10%
CCOc1cccc(CNCCCSc2ncccn2)c1 | -16%
CC1CN(c2ccc(NC(=S)Nc3ccc(N4CC(C)OC(C)C4)cc3)cc2)CC(C)O1 (stereo not drawn) | 0%
CSc1ccc(C2C(C#N)=C(N)Oc3cc4c(cc32)OCO4)cc1 (stereo not drawn) | -1%
O=C(COC(=O)c1ccc([N+](=O)[O-])cc1)NCCC1=CCCCC1 | -7%
C[C@]12c3[nH]c4ccc(Cl)cc4c3CCN1C(=O)[C@@H](CC(=O)NCCc1ccccn1)C[C@@H]2C(=O)N1CCOCC1 | -24%
Cc1ccc(-n2nnc3ccccc3c2=O)cc1C | 6%
COC(=O)c1ccc(NC(=O)CN(c2ccc(C)cc2)S(=O)(=O)c2c(C)nn(C)c2C)cc1 | -2%
Nc1ccc2nc3c(=O)[nH]c(=S)[nH]c3nc2c1 | 79µM*
C=Cc1ccc(S(=O)(=O)O)cc1 | 5%
O=C(CN1C(=O)/C(=C\C=C\c2ccccc2)SC1=S)Nc1ccc(F)cc1 | -1%
Cc1ccccc1C(=O)NNC(=O)CCC(=O)Nc1cccc(Cl)c1C | -16%
O=C(Nc1ccccc1)Nc1ccccn1 | 7%
CCOc1ccc(-c2nc3cc(NC(=O)COc4cccc(C)c4)ccc3o2)cc1 | -5%
COc1ccc(CNC(=O)COC(=O)CC(NC(N)=O)c2ccc(Cl)cc2)cc1OC (stereo not drawn) | -6%
Cc1cc(C)cc(C(=O)NC(CC(N)=O)c2ccc(NC3CCCC3)c([N+](=O)[O-])c2)c1 (stereo not drawn) | 5%
COCCN(C(=O)CNC(=O)c1cccs1)C(C(=O)NC(C)(C)C)c1ccccc1 (stereo not drawn) | -5%
COc1ccc2cc(S(=O)(=O)n3cnc(C)c3)ccc2c1 | -1%
CN(C)c1ccc(-c2noc(C3CCN(C(=O)Nc4ccc(Cl)cc4)CC3)n2)cc1 | 7%
O=C(c1ccc(COc2ccccc2Br)o1)N1N=C(C(F)F)CC1(O)C(F)F (stereo not drawn) | -18%
CCOC(=O)N1CCN(C(=O)CSc2nc(C)nc3c2c(=O)n(C)c(=O)n3C)CC1 | -15%
CCN(CC)C(=O)c1cc2cc([N+](=O)[O-])ccc2s1 | -8%
CCN(C#N)c1nc(NC(C)C)nc(NC(C)C)n1 | -8%
COc1ccccc1N1CCN(CCC(=O)Nc2ccc3c(c2)OCO3)CC1 | -3%
Cc1ccnc(NC(=O)c2cccc(OC(F)F)c2)n1 | 3%
Cn1c(SCc2ccccc2)nnc1-c1cccs1 | 15%
CN1CCOCCOCCOCCN(C)C1=S | -2%
O=C(CCN1C(=O)S/C(=C\c2ccccc2)C1=O)NC1CCS(=O)(=O)C1 (stereo not drawn) | 9%
Cc1cc(C)cc(C(=O)N2CCC(CCC(=O)NC3CC3)CC2)c1 | 11%
CCOC1(OCC)N=C(N)C2(C#N)C(c3cccc(C)c3)C12C#N (stereo not drawn) | 4%
COc1ccc(CCN=C(C)C2=C(O)C(c3ccccc3)OC2=O)cc1OC (stereo not drawn) | -7%
Cc1ccc(Cn2c(SCC(=O)N3CC(=O)Nc4ccccc43)nc3ccccc3c2=O)cc1 | -20%
CCCCN(C(=O)CSc1nc(CCC)cc(=O)[nH]1)c1c(N)n(Cc2ccccc2)c(=O)[nH]c1=O | -13%
COC(=O)NC(NC(=S)Nc1ccccc1OC)C(Cl)(Cl)Cl (stereo not drawn) | 0%
O=C(CN1CCCCCCC1)NC(=O)NC1CCCCC1 | 4%
Cc1cccc(N2CC(C(=O)O)CC2=O)c1 (stereo not drawn) | 3%
CN(Cc1ccccc1)c1ccc(-c2nc(-c3ccccc3)no2)cc1[N+](=O)[O-] | 15%
CC(c1ccccc1)C1C(C#N)=C(N)SC(N)=C1C#N (stereo not drawn) | -19%
Cc1ccc2nc(-c3ccc(NC(=O)CSCC(=O)O)cc3)sc2c1 | -21%
CCOc1ccccc1NC(=O)NCc1ccccn1 | -13%
COc1ccc(S(=O)(=O)N2CCC(O)(c3ccc(Cl)cc3)CC2)cc1OC | 10%

Further structures.
mol | VDR inhibitor
CN(C)S(=O)(=O)c1cccc(-c2nnc(SCCNCCO)n2-c2ccc(F)cc2)c1 | 2%
CC(C)(C)Nc1cccccc1=O | -9%
Cc1cccnc1NC(=O)c1cccc(S(=O)(=O)N2CCN(c3ccccc3)CC2)c1 | -6%
Cc1nn(C)c(Cl)c1C(=O)NCC(=O)NCc1ccccc1 | 0%
O=C(N/N=C\c1cc([N+](=O)[O-])ccc1N1CCCC1)c1ccccn1 | -16%
CCC(Sc1nc(=O)cc(N)n1CCc1ccccc1)C(=O)Nc1ccccc1C#N (stereo not drawn) | 11%
O=C(Nc1cccc(Cl)c1)c1cc(S(=O)(=O)N2CCC3(CC2)OCCO3)ccc1F | -3%
CN(C)c1ccc(C(=O)NCC(c2cccs2)N2CCOCC2)cc1[N+](=O)[O-] (stereo not drawn) | -1%
O=S(=O)(NCc1cccnc1)c1cccc2nsnc12 | ?
COc1ccc(OC)c(S(=O)(=O)Nc2ccc(O)c3ccccc23)c1 | -3%
Cc1ccnn1-c1ccc(C(=O)N2CCCN(S(=O)(=O)c3ccc(F)cc3)CC2)cc1 | -9%
NS(=O)(=O)c1ccc(NC(=O)Cn2nc(C(=O)O)c3ccccc3c2=O)cc1 | 2%
O=C(CCN1C(=O)S/C(=C/c2ccccc2)C1=O)Nc1ccc(C(=O)O)c(O)c1 | -13%
O=C(CSc1nc2ccccc2o1)Nc1ccccc1 | 4%
CC1C(=O)O[C@@H]2C[C@@H](C)[C@@H]3CCC(=O)[C@@]3(C)[C@@H](O)[C@H]12 (stereo partly drawn) | -19%
CC1CCN(S(=O)(=O)c2cccc(C(=O)Nc3ccccn3)c2)CC1 | 4%
CC1(C)CC(=O)C=C(NCc2ccccc2)C1 | -2%
NS(=O)(=O)c1cc(C(=O)OCC(=O)NC2CC2)ccc1Cl | -6%
CS/C(=C(/C#N)S(=O)(=O)c1ccc(Cl)cc1)N1CCOCC1 | -26%
O=C(Nc1cccc2ncccc12)c1cccc(F)c1 | -4%

Not a retest: 4 of the compounds above.
mol | VDR inhibitor
CC1CCN(S(=O)(=O)c2cccc(C(=O)Nc3ccccn3)c2)CC1 | 4%
CC1(C)CC(=O)C=C(NCc2ccccc2)C1 | -2%
NS(=O)(=O)c1cc(C(=O)OCC(=O)NC2CC2)ccc1Cl | -6%
CS/C(=C(/C#N)S(=O)(=O)c1ccc(Cl)cc1)N1CCOCC1 | -26%
